Screens as filed in PubChem BioAssay.
ALR H2O2 inh – blocks human ALR sulfhydryl oxidase activity; P55789; purified ALR, DTT oxidation, H2O2 HRP-luminol luminescence; inhibition, % (no concentration beside the values); 290,000 tested, 3.8% active;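 active means mean and each replicate at 75% or more; inconclusive means only one of the two met; inactive means neither met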;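 further: stock transfer was 7.5 nL into about 7.5 µL; 0% = neutral wells and 100% = wells with inactivated enzyme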
Target sequence (P55789 whole entry, looked up): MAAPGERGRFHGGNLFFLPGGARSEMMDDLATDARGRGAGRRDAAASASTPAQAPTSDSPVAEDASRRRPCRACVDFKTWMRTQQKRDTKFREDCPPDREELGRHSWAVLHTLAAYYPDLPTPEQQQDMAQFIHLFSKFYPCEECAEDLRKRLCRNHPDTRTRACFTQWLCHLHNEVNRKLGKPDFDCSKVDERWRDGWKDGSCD
HNF4A DNA FP – change in binding of human HNF4 alpha to DNA. P41235. HNF4a-FITC DNA binding, fluorescence polarization, 1 h. activity change, % at 10 µM. 360,000 tested, 0.3% active. AID 1224865; in the data active means activity change above about 30%, passing the limit was not always enough;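 further: controls were the assay level and a saturating level of protein; the project sought stronger binding though the title names inhibitors; some compounds called inactive have numbers as strong as hits; positive values seem to mean higher polarization but the record does not say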
Vif TR-FRET – inhibitors of Vif binding to APOBEC3G peptide, primary screen, biochemical, TR-FRET, GST-Vif 1-94, biotin-A3G peptide, dose response retest (AID 1117319). TR-FRET GST-Vif / biotin-A3G peptide binding; higher % means a stronger effect; test concentration not given here; strong numbers were not always called active. inhibition, %, or IC50 in µM where a hit was titrated. 260,000 tested, 0.57% active;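 active means above the screen mean plus three standard deviations and confirmed in dose response; inconclusive means results disagree or hit not tested in dose response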;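 further: Vif residues 1-94 fused to GST binding biotinylated APOBEC3G peptide 110-148; 0% = full assay without inhibitor and 100% = GST in place of GST-Vif; retest series ran down from 100 µM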
LANA-H2B inh – blocks KSHV LANA binding to histone H2A/H2B; inhibition, % (concentration not given with the values); cell-free LANA-H2A/H2B peptide, fluorescence polarization; 320,000 tested, 0.6% active; AID 2629; Q9QR71; in the data active means inhibition mostly above about 10%, no sharp cut-off; inactive means mostly below about 6.7%;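 further: stock transfer was 7.5 nL into about 10 µL; 0% = median of vehicle wells and 100% = median of positive control wells; one replicate is shown; the record names a cut of 25% in any replicate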
RanGTP-Imp inh – inhibitors of RanGTP-importin-beta interaction, primary screen, biochemical, FRET, CFP-Ran, YFP-importin-beta, homogeneous; inhibition, % (test concentration not listed); 300,000 tested, 1.1% active; cell-free CFP-Ran/YFP-importin-beta FRET ratio;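 active means most replicates above 15%; inconclusive means exactly half above 15%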;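 further: 0% = DMSO wells and 100% = Ran loaded with GDP instead of GTP; wells of about 40 µL received 100 nL stock; the first replicate is given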
Calb FLC – affects C. albicans growth with fluconazole; 300,000 tested, 0.57% active; C. albicans CaCi-2 (fluconazole-resistant clinical isolate) + fluconazole, Alamar Blue growth, 48 h; growth inhibition, % (no concentration beside the values); AID 1979;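 active means most replicates above 75%; inconclusive means exactly half above 75%; inactive means most below 75%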;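 further: all wells also contain fluconazole at 8 µg/ml as a sub-toxic cotreatment; 0% = median of DMSO wells and 100% = median of geldanamycin control wells; wells of about 8 µL received 7.5 nL stock; the first replicate is given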
Beta2AR agonist – human beta-2 adrenergic receptor agonism by FAP. 340,000 tested, 0.43% active. Am2.2-beta2AR cells, FAP receptor internalization, flow cytometry; reference of the scale not given here. response, % (no concentration beside the values);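 active means response above a set limit, near 3 SD of response in nonfluorescent compounds, cut at about 42% in these data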;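 further: stock transfer was 100 nL into about 11 µL; a reference agonist was the positive control; negative values mostly stem from fluorescent compounds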
Target sequence (P07550 whole entry, looked up): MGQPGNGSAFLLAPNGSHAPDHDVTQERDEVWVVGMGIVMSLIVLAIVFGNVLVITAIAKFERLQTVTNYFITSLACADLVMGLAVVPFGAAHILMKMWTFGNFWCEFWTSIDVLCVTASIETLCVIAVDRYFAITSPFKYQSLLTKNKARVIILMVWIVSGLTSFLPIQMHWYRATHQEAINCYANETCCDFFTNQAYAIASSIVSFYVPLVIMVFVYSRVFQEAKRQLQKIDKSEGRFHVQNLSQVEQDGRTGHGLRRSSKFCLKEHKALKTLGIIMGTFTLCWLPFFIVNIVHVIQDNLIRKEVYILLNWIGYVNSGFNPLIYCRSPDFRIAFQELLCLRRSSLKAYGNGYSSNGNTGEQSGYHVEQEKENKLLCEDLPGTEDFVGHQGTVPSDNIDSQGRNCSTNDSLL
The depositor's hits bear a star; ? = inconclusive; . = not tested or not shown.

Each structure is followed by: HNF4A DNA FP, Calb FLC, Vif TR-FRET, RanGTP-Imp inh, LANA-H2B inh, Beta2AR agonist, ALR H2O2 inh
1	COc1cc(-c2noc(CCC(=O)NC3CCCCC3)n2)cc(OC)c1OC
    2.1, -12, ., -4.0, 3.4, -1, 4
2	O=C(/C=C/c1cccc(Br)c1)N1CCN(c2ccccn2)CC1
    2.9, 42, 3%, 0.4, 3.0, 0, -6
3	Cc1ccccc1/C=N/n1c(-c2ccccn2)n[nH]c1=S
    1.8, -5, -16%, -1.5, -1.4, 8, .
4	Cc1cc(=O)[nH]c(SCC(=O)N2CCC(Cc3ccccc3)CC2)n1
    -0.7, 2, ., -1.6, -1.6, -1, -3
5	Cc1ccc(OCC(=O)Oc2ccccc2[N+](=O)[O-])cc1
    -0.9, -2, ., 0.5, -5.9, -5, 9
6	O=C(NCC1CCCO1)c1ccc(Oc2ccc([N+](=O)[O-])cc2)cc1 (stereo not given)
    1.1, 2, -5%, ?, -0.4, 10, -1
7	N#CCCN(CCC#N)C(=S)NC1CC2C=CC1C2 (stereo not given)
    -1.3, -6, ., 2.1, 2.0, -4, 16
8	COC(=O)c1scc(S(C)(=O)=O)c1-n1cccc1
    9.6, 5, -2%, -2.0, 5.7, 11, -12
9	Cc1ccc2c(c1)-c1c(cnn1CC(=O)O)CO2
    0.2, -4, 5%, 5.3, 3.5, 6, -1
10	COc1ccc(C2CC(c3cccs3)=NN2C(=O)CSc2nncs2)cc1OC (stereo not given)
    0.1, -3, -9%, -2.7, -0.8, -11, -8
11	Cc1c(C(=O)NCc2ccc(F)cc2)c(-c2ccccc2)nn1-c1ccccc1
    -4.6, 2, 22%, -2.4, 4.5, ., -3
12	CC1CCCCC1NC(=S)NC(=O)c1cccs1 (stereo not given)
    -7.3, 1, -8%, -2.4, 0.1, -3, 9
13	Cc1nn2c(NCCCN3CCOCC3)c3c(nc2c1-c1ccccc1)CCC3
    -0.5, -7, -2%, 0.6, -1.3, -4, .
14	NC(=O)/C=C/C(=O)Nc1ccc(Cl)cc1
    3.5, -1, -5%, 2.1, 1.1, -1, 14
15	CCCCNc1nc(CC)c2c(c1C#N)CCCC2
    -0.4, 0, -3%, ?, 0.9, -4, 0
16	CCCCOC(=O)C1=C(C)NC(=O)NC1c1cc2c(cc1Br)OCO2 (stereo not given)
    7.8, 13, ., -4.1, 7.3, -2, -9
17	O=C(C1CCN(S(=O)(=O)c2ccc(Cl)cc2)CC1)N1CCCCCCC1
    3.8, -8, ., 1.7, 2.1, -4, -1
18	O=C(c1ccc(-n2nc(C(F)(F)F)c3c2CCCC3)cc1)N1CCOCC1
    -0.8, 10, -1%, 3.5, -0.1, 1, -2
19	Cc1ccccc1-c1cc2nc(C)c(C)c(=O)n2[nH]1
    0.5, -5, ., -1.5, -1.9, -104, 38
20	COc1ccc(CNCC(O)(c2ccccc2)c2ccc(F)cc2)cc1OC (stereo not given)
    2.2, -4, ., -1.1, -6.1, -5, -7
21	CCOC(=O)C1(Cc2cccc(OC)c2)CCCN(C(=O)c2cc(CC(C)C)[nH]n2)C1 (stereo not given)
    -3.7, 16, 1%, 2.0, -1.0, -7, 3
22	Cc1cc(OCC(=O)NCc2cccnc2)c2c(C)cc(=O)oc2c1
    2.8, 0, ., 3.3, 0.6, 9, -2
23	Cc1ccc(CS(=O)(=O)c2ccc(C(=O)N3CCCCC3)cc2[N+](=O)[O-])cc1
    -4.0, 6, 4%, ?, -0.6, 3, -7
24	O=S(=O)(Nc1ccc2c(c1)OCO2)c1ccc(F)c(F)c1
    -3.1, ., 5%, ., 27*, 3, 88*
25	O=C(Nc1cccc(Cl)c1)Nc1ccccc1NS(=O)(=O)c1cccs1
    4.2, 2, 11%, 3.0, 3.5, 1, 45
26	CN1C(=O)CC(N2CCN(c3ccccn3)CC2)C1=O (stereo not given)
    -1.2, 0, 12%, -1.6, -1.0, -7, -1
27	CCC(C)c1ccc(NC(=O)Nc2cccnc2)cc1 (stereo not given)
    -1.7, 27, ., 5.1, -0.7, 14, 3
28	CCCCN(CC)CCCNC(=O)c1cc2c(=O)n(CC)c3ccccc3c2s1
    3.2, -7, -5%, 0.0, 0.1, 14, .
29	CC(C)(C)NC(=O)C(c1ccccn1)N(C(=O)c1ccc2c(c1)OCCO2)C1CCCC1 (stereo not given)
    -1.4, -4, -2%, ?, -0.4, 2, -3
30	CN(CCc1ccccc1)c1ccc([N+](=O)[O-])cn1
    -0.6, -33, ., -0.2, 2.2, -3, 11

An excerpt of these results, bar-delimited:
nr | SMILES | HNF4A DNA FP | Calb FLC | Vif TR-FRET | RanGTP-Imp inh | LANA-H2B inh | Beta2AR agonist | ALR H2O2 inh
9 | Cc1ccc2c(c1)-c1c(cnn1CC(=O)O)CO2 | 0.2 | -4 | 5% | 5.3 | 3.5 | 6 | -1
14 | NC(=O)/C=C/C(=O)Nc1ccc(Cl)cc1 | 3.5 | -1 | -5% | 2.1 | 1.1 | -1 | 14
17 | O=C(C1CCN(S(=O)(=O)c2ccc(Cl)cc2)CC1)N1CCCCCCC1 | 3.8 | -8 | . | 1.7 | 2.1 | -4 | -1
8 | COC(=O)c1scc(S(C)(=O)=O)c1-n1cccc1 | 9.6 | 5 | -2% | -2.0 | 5.7 | 11 | -12
5 | Cc1ccc(OCC(=O)Oc2ccccc2[N+](=O)[O-])cc1 | -0.9 | -2 | . | 0.5 | -5.9 | -5 | 9
18 | O=C(c1ccc(-n2nc(C(F)(F)F)c3c2CCCC3)cc1)N1CCOCC1 | -0.8 | 10 | -1% | 3.5 | -0.1 | 1 | -2

Continuation:
Each structure is followed by: HNF4A DNA FP, Calb FLC, Vif TR-FRET, RanGTP-Imp inh, LANA-H2B inh, Beta2AR agonist, ALR H2O2 inh
31	CN(C)C(CNC(=O)c1ccccc1C(F)(F)F)c1ccco1 (stereo not given)
    0.7, 2, 19%, -0.3, 6.0, 9, -5
32	O=C(COC(=O)c1cc(S(=O)(=O)N2CCOCC2)ccc1Cl)NC1CC1
    -1.0, ., -7%, ., 2.1, 6, .
33	O=C(Oc1ccc(=O)n(-c2ccccc2)n1)c1ccc(F)cc1
    -0.1, -2, ., 2.3, 4.5, 6, 70
34	Cn1c(CNC(=O)c2ccccc2F)nnc1SCc1ccc(F)cc1
    -1.9, -8, 6%, 0.9, 2.7, -13, -2
35	CC(C)C(NC(=O)c1ccccc1)C(=O)NC1CCCc2ccccc21 (stereo not given)
    2.3, ., -13%, ., -347, -6, -1
36	CCN(C(=O)CN1C(=O)/C(=C/c2ccccc2)SC1=S)C1CCS(=O)(=O)C1 (stereo not given)
    3.1, ., ., -2.5, -3.6, -6, -5
37	Cc1ccc(S(N)(=O)=O)cc1NC(=O)C1CC2CCC1C2 (stereo not given)
    2.0, 15, 2%, -1.5, 0.4, -5, -26
38	O=C(COC(=O)C12CC3CC(CC(C3)C1)C2)Nc1ccc([N+](=O)[O-])cc1Cl
    1.8, 2, 4%, 2.4, -7.1, -3, -20
39	Cc1cc(C)nc(NC(=O)c2ccc(C)c([N+](=O)[O-])c2)n1
    0.4, 20, 4%, 3.1, -0.5, 1, 5
40	CN1C(=O)Cc2cc(S(=O)(=O)NCCc3ccccc3)ccc21
    -1.1, -4, ., 0.9, -0.7, -2, 11
41	COc1ccc(/C=N/NC(=O)c2sc(C)nc2C)cc1
    -0.3, 36, -10%, -0.5, -6.5, -4, -13
42	O=C(c1ccc(Cn2c(=S)[nH]c3ccc(N4CCOCC4)cc3c2=O)cc1)N1CCC(N2CCCCC2)CC1
    3.3, 6, -4%, 2.6, ., 3, 4
43	COc1cccc(/C=N/n2c(-c3cc(C)[nH]n3)n[nH]c2=S)c1
    -0.8, 7, 102%, -3.4, -1.0, 9, .
44	CS(=O)(=O)N(CC(=O)N1CCCCC1)C1CCCCC1
    2.2, 7, 2%, -4.1, 0.5, 5, -5
45	O=C(CNC(=O)N1CC(=O)Nc2ccccc21)NCc1ccc(Cl)cc1
    -1.5, 1, ., 6.1, 0.9, -3, 1

Numbers 40 through 41 from above:
Each structure is followed by: HNF4A DNA FP, Calb FLC, Vif TR-FRET, RanGTP-Imp inh, LANA-H2B inh, Beta2AR agonist, ALR H2O2 inh
40	CN1C(=O)Cc2cc(S(=O)(=O)NCCc3ccccc3)ccc21
    -1.1, -4, ., 0.9, -0.7, -2, 11
41	COc1ccc(/C=N/NC(=O)c2sc(C)nc2C)cc1
    -0.3, 36, -10%, -0.5, -6.5, -4, -13

Going on with the list:
Each structure is followed by: HNF4A DNA FP, Calb FLC, Vif TR-FRET, RanGTP-Imp inh, LANA-H2B inh, Beta2AR agonist, ALR H2O2 inh
46	COc1ccc(/C(O)=C2/C(=O)C(=O)N(CCCC(=O)O)C2c2ccc(OC)cc2)cc1 (stereo not given)
    0.2, -3, -2%, -0.9, -1.8, -4, 2
47	COc1ccc2sc(-c3ccc(S(C)(=O)=O)cc3)c(-c3ccc(SC)cc3)c2c1
    -2.2, ., ., ., 6.5, -1, -2
48	CCOC(=O)C1CSC2(CCC(c3ccccc3)CC2)N1 (stereo not given)
    0.9, -12, 2%, 0.2, 0.2, 2, 3
49	CCOC(=O)C1CCN(C(=O)CCc2ccccc2)CC1
    1.2, -6, 5%, -2.5, 1.8, 6, -8
50	Cc1ccc(NC(=O)CN(C)S(=O)(=O)c2ccc(Br)s2)cc1F
    -1.3, -2, -5%, -1.9, -8.3, -6, -2
51	COC(=O)C1=C[C@@H](C(=O)OC)C2C3=C(C(=O)C24CCCCC4)[C@H](C)n2c(=O)n(C)c(=O)n2[C@@H]3C1 (stereo not given in full)
    -4.0, -1, ., -2.8, 1.8, -4, -10
52	NC(=O)C1CCN(CCC(=O)Nc2cccc(Cl)c2)CC1
    1.7, -1, 22%, -0.2, -0.9, 0, -2
53	CCc1nnc(NC(=O)CCC(=O)NC2CCCCC2)s1
    -3.2, ., 0%, 5.0, 0.4, 4, 28
54	CN1CCN(C(c2cccs2)c2nnnn2Cc2ccc(F)cc2)CC1 (stereo not given)
    2.1, 9, ., 11, -1.6, 1, .
55	CN(C)c1ccc(N=Nc2ccccc2C(=O)OCC(=O)NCC2CCCCC2)cc1
    1.4, -4, ., -6.7, -1.6, 10, 1
56	CC1(C)CC(=O)C(=Cc2cn(CCC#N)nc2-c2ccc(Cl)cc2)C(=O)C1
    0.8, 1, 9%, 0.2, 7.5, 17, 13
57	CC(=O)Nc1cccc(Oc2ncnc3scc(-c4ccc(C(C)C)cc4)c23)c1
    -1.7, 19, ?, 2.8, -5.0, -6, -10
58	COc1ccc(N2CCN(C(=O)CCS(=O)(=O)c3ccc(C)cc3)CC2)cc1
    -1.0, -4, 1%, 2.1, 1.1, 1, 88*
59	CC(C)Nc1ccc(-n2nc3ccccc3[n+]2[O-])cc1
    3.1, -2, 7%, -0.8, -1.0, -8, 1
60	CC(=O)[C@@H]1[C@@H](C)N(Cc2ccccc2)C(=O)N[C@H]1c1ccccc1
    -1.6, 1, ., 0.9, 1.2, -1, 5
61	O=C(CSc1nc2ccccc2c(=O)n1Cc1ccco1)N1CCCCCC1
    1.1, 2, 3%, 6.0, 0.4, -9, 3
